HPGD block – inhibitors of human 15-hydroxyprostaglandin dehydrogenase (HPGD); purified HPGD, NADH fluorescence kinetic, PGE2 substrate; Potency, µM, for inactives: at the highest dose activity change, negative = inhibition, hits mostly inhibitors; 150,000 tested, 4.3% active; AID 894; active = well fitted inhibition curve with a large enough effect (not every such curve was filed as active); inconclusive = small, poorly fitted or top-dose-only effect, or another doubt; inactive = no such curve, though single readings can be large or run the other way;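 also: top concentration of the series not given in the record; plate controls included wells without enzyme; inactives centre near -10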
Target sequence (P15428 whole entry, looked up): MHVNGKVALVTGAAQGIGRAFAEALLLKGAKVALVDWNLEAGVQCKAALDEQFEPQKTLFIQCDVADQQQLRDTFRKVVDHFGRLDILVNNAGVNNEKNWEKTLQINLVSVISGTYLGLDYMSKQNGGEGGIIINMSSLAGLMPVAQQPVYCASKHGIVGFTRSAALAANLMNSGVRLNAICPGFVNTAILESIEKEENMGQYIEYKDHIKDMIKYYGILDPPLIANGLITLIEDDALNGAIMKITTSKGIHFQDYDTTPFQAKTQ
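20 nM HPGD preincubated 15 min at room temperature with compound in 50 mM Tris-HCl pH 8, 0.01% Tween 20. Started with 1 mM NAD+ and 30 uM prostaglandin E2; NADH fluorescence (360/450 nm) read 5 times over 30-s intervals, last minus first.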
An asterisk follows results filed as active; ? = inconclusive. % is scaled to controls: 0 for no effect and ±100 for the full control effect; potency is read from the fitted curve at half-maximal effect. Only part of the results is shown. The share of hits here may be higher or lower than overall.

HPGD block	SMILES
-3%	CCOC(=O)CN1C(=O)N[C@@H](c2cccc(C(F)(F)F)c2)[C@H](C(=O)OC)[C@H]1C
-8%	Cc1ccccc1NC(=S)N(CCCN1CCC(C)CC1)Cc1ccco1
-8%	COc1ccc(CCn2c(-c3ccco3)nc3nc4ccccc4nc32)cc1OC
-20%	CN1/C(=C\C(=O)c2cccs2)C(C)(C)c2ccccc21
-6%	Cc1nc2c(c(C)c1C#N)C(=O)c1ccccc1-2
-11%	CCOc1ccccc1NC(=O)CSc1c(C)n[nH]c1C
-10%	COc1ccccc1NCCC(=O)OCC(=O)NCc1ccco1
-5%	CCc1ccc(NC(=O)Cc2cn(C)c3ccccc23)cc1
-4%	O=C(NCc1ccccn1)NC1CCCCC1
10%	Cc1cc2c(c(=O)n1CCN(C)C)C(c1ccc(Cl)cc1)C(C#N)=C(N)O2 (stereo unspecified)
?	COc1ccc(-c2[nH]nc3oc(=O)cc(C)c23)cc1
?	Cc1ccsc1/C=C(\C#N)C(=O)Nc1c(C)n(C)n(-c2ccccc2)c1=O
-19%	Cn1c(=O)c2c(n(Cc3ccccc3)c1=O)NC(=O)C2CC(=O)N1CCc2ccccc2C1 (stereo unspecified)
-10%	CCOC(=O)NCc1ccc2c(c1)OCO2
-5%	N/C(=N\OC(=O)COc1ccccc1)c1ccccn1
-5%	FC(F)(F)c1nnc(-c2ccccc2)nc1Oc1ccccc1
-11%	O=C(NNS(=O)(=O)c1ccc(Cl)cc1)C1CCN(Cc2ccccc2)CC1
-4%	O=C(Oc1cccc(NC(=O)c2ccco2)c1)c1cccc(S(=O)(=O)N2CCCC2)c1
-12%	COc1ccc(C(=O)N2c3ccc(F)cc3CCC2C)cc1OC (stereo unspecified)
?	CCC1CCCN1Cn1cnc2c([nH]c3ccc(OC)cc32)c1=O (stereo unspecified)
-8%	Cc1ccc(CN2C(=O)N/C(=C\c3ccc(N4CCOCC4)cc3)C2=O)cc1
-18%	O=C(O)C1CCCN1C(=O)Nc1ccccc1 (stereo unspecified)
-14%	CCN(CC)C(=O)C(=O)c1cccn1-c1cccc(Cl)c1C#N
-12%	Cc1cccc(OCCC(=O)Nc2ccc(C)c(S(=O)(=O)N3CCCCC3)c2)c1
?	O=C(/C=C\c1ccc2c(c1)OCO2)NC1(C(=O)Nc2ccc3c(c2)OCCO3)CCCCC1
-7%	C[N+](C)(N)CCC[N+](C)(C)N
-10%	Cc1c(NC(=O)c2cc(-c3ccco3)on2)c(=O)n(-c2ccccc2)n1C
-28%	CCC(CC)COC(=O)C(C#N)c1nc2ccccc2nc1N1CCOCC1 (stereo unspecified)
-13%	Cc1ccc2nc(N(CCN(C)C)C(=O)/C=C/c3cccs3)sc2c1
-6%	Cc1cc(=O)oc2cc(OCC(=O)Nc3cccc(S(=O)(=O)N(C)C)c3)ccc12
-3%	COc1ccc(CNC(=O)C(c2ccncc2)N(C(=O)Cc2cccs2)c2ccccc2)cc1 (stereo unspecified)
-5%	CC1CCc2nc(NC(=O)CN3CCOCC3)sc2C1 (stereo unspecified)
?	N#Cc1c(Nc2ccc(F)cc2)sc(C(=O)c2ccccc2)c1N
-5%	Cc1noc(C)c1C(=O)OC(C)C(=O)Nc1ccc(S(=O)(=O)NC(C)C)cc1 (stereo unspecified)
2%	O=C(CN1C(=O)c2ccccc2C1=O)Nc1ccc2c(c1)OCO2
-16%	Cc1ccc(-c2[nH]nc(N)c2N=Nc2ccccc2C)cc1
-13%	O=C(Cn1ccc2ccccc2c1=O)NCCC(=O)NC1CCN(Cc2ccccc2)CC1
-6%	C/C(=N\NC(N)=O)c1ccc(Cl)cc1
-17%	N#Cc1ccccc1Cn1c(=O)n(CCC(=O)NCc2ccco2)c(=O)c2ccccc21
-10%	O=C(CNC(=O)c1ccc(N2C(=O)c3ccccc3C2=O)cc1)OCC(=O)c1ccccc1
-5%	CCOC(=O)Cn1nnnc1CN(Cc1ccc(OC)cc1)Cc1cc2cc(C)ccc2[nH]c1=O
-15%	COc1cc(C(=O)Nc2cc(-c3ccccc3)[nH]n2)cc(OC)c1OC
-5%	N=C1C(c2nc(-c3ccc(F)cc3)cs2)=C(O)CN1CCCN1CCOCC1
-8%	CCCn1c(SCC(=O)c2cc(C)n(-c3ccc4c(c3)OCO4)c2C)n[nH]c1=O
-5%	OC(C#CCN1CCOCC1)c1cccs1 (stereo unspecified)
-7%	CC(C)(C)C(=O)NC(=S)Nc1cc(C(F)(F)F)ccc1N1CCOCC1
0%	N#[N+]c1ccc(Nc2ccccc2)cc1
-9%	COc1ccnc(Oc2ccc(F)cc2)c1C(=O)N/C=N/OCc1ccc(Cl)cc1Cl
-8%	COc1ccc(-c2noc(-c3cccc(Cl)c3)n2)cc1OC
-3%	COc1cc(C)ccc1OCCOCCN(C)Cc1ccccc1

Compounds from the list above containing fluorine:
HPGD block	SMILES
-3%	CCOC(=O)CN1C(=O)N[C@@H](c2cccc(C(F)(F)F)c2)[C@H](C(=O)OC)[C@H]1C
-5%	FC(F)(F)c1nnc(-c2ccccc2)nc1Oc1ccccc1
-12%	COc1ccc(C(=O)N2c3ccc(F)cc3CCC2C)cc1OC (stereo unspecified)
?	N#Cc1c(Nc2ccc(F)cc2)sc(C(=O)c2ccccc2)c1N
-5%	N=C1C(c2nc(-c3ccc(F)cc3)cs2)=C(O)CN1CCCN1CCOCC1
-7%	CC(C)(C)C(=O)NC(=S)Nc1cc(C(F)(F)F)ccc1N1CCOCC1
-9%	COc1ccnc(Oc2ccc(F)cc2)c1C(=O)N/C=N/OCc1ccc(Cl)cc1Cl

5 compounds drawn at random from the list so far:
HPGD block	SMILES
-7%	CC(C)(C)C(=O)NC(=S)Nc1cc(C(F)(F)F)ccc1N1CCOCC1
-10%	Cc1c(NC(=O)c2cc(-c3ccco3)on2)c(=O)n(-c2ccccc2)n1C
-7%	C[N+](C)(N)CCC[N+](C)(C)N
0%	N#[N+]c1ccc(Nc2ccccc2)cc1
-5%	CC1CCc2nc(NC(=O)CN3CCOCC3)sc2C1 (stereo unspecified)

Next part
HPGD block	SMILES
-9%	CCCOc1cccc(C(=O)Nc2cc(NC(=O)c3ccco3)ccc2OC)c1
?	O=C(CCCCCCCC(=O)NCC1CCCO1)NCC1CCCO1 (stereo unspecified)
-8%	Cc1ccccc1OCCCCc1c(C)n[nH]c1C
-5%	Cc1nnc(NCc2n[nH]c(=O)c3ccccc23)c2ccccc12
-12%	CCOc1ccc(/C=C/C(=O)Nc2ccc(N3CCOCC3)cc2)cc1
-8%	CCN(Cc1nc2ccccc2c(=O)[nH]1)Cc1nc2cc(OC)c(OC)cc2c(=O)[nH]1
22µM*	CCN(C(=O)c1cc2cccc(OC)c2oc1=O)c1ccccc1
5%	CCCC(=O)Oc1ccc2c(C)cc(=O)oc2c1
-6%	O=C(CCCCCCCCC(=O)N/N=C/c1ccco1)N/N=C/c1ccco1
-26%	CN1CCN(c2nc(-c3ccncc3)nc3ccccc23)CC1
2%	O=C(CCC(=O)Nc1ccccc1)NNC(=O)c1cccs1
-3%	CCCc1nnc(SCC(=O)N2CCCC2)n1CC1CCCO1 (stereo unspecified)
-4%	COc1cc2c(cc1OC)C(=O)N(C)CC2
?	CC(C)OC(=O)c1nnn(-c2nonc2N)c1CSc1ccccn1
?	COc1ccc2[nH]c(=O)c(CN(C(=O)c3cccnc3)c3ccccc3)cc2c1
-21%	COc1ccc(C(=O)Nc2ccc(S(=O)(=O)Nc3nccnc3OC)cc2)cc1
-17%	Cc1cccc(NC(=O)COC(=O)Cc2cccc(C(F)(F)F)c2)c1C
-12%	Oc1c(Br)cc(Br)cc1C=Nc1ccc2c(c1)OCO2
?	O=C(NCc1ccco1)c1cccnc1Cl
6%	O=C(CSc1nnc2n(C3CCCCC3)c(=O)c3ccccc3n12)OC1CCCCC1
-23%	CC1CCN(C(=O)CNS(=O)(=O)c2ccc(Br)s2)CC1
-4%	Cc1cc(C(F)F)n2nc(C(=O)Nc3c(F)cc(F)cc3Br)nc2n1
-13%	O=C(N/N=C/c1ccc[nH]1)c1cccc(Br)c1
-7%	COC(=O)[C@H](CCSC)NC(=O)Nc1ccc(C(C)=O)cc1
-4%	CCOC(=O)c1ccc(NC(=S)N(CCCN2CCCCC2)Cc2ccco2)cc1
?	CCc1nc(NC2CCCCC2)c(C#N)c2c1COC(C)(C)C2
?	Cc1ccc(C)c(N2CCN(C(=O)C3CCN(S(=O)(=O)c4cccc5nsnc45)CC3)CC2)c1
-11%	Cc1cccc(-n2ncc(C#N)c2-n2cccc2)c1
-11%	CCc1cc2c3c(c1)/C(=C1/SC(N)=NC1=O)C(=O)N3C(C)(C)C=C2C
-6%	COc1cccc(NC(=S)NNC(=O)Cn2nc(C(F)(F)F)cc2C)c1
-6%	O=C(Nc1nnc(SCc2ccccc2F)s1)c1ccco1
-19%	CC(C)(C)c1ccc(/C=N/OCC(=O)NCc2ccccc2)cc1
-4%	Cc1cccc(N2CCN(C(=O)c3ccc(N4CCCC4=O)cc3)CC2)c1C
-2%	Oc1ccc2cccnc2c1
-14%	CCOC(=O)Cn1c(N2CCCCCC2)nc2c1c(=O)[nH]c(=O)n2C
-17%	O=C(CN1C(=O)CCS(=O)(=O)c2ccccc21)NCc1ccc2c(c1)OCO2
-11%	COc1ccc2c(c1)c(CC(=O)Nc1ccc(C(C)=O)cc1)c(C)n2C(=O)c1ccc(Cl)cc1
1%	CCCN1Cc2cccc(C(=O)NC3CCCC3)c2C1=O
1%	OC(CNCCCN1CCCCC1)COc1ccccc1 (stereo unspecified)
?	COc1ccc(C2C3=C(CC(C)(C)CC3=O)Nc3n[nH]c(C)c32)cc1 (stereo unspecified)
-22%	CC1=NN(c2cccc(C(=O)O)c2)C(=O)/C1=C\C=C\c1ccco1
-17%	Cc1ccc(CONC(=O)/N=C/N(C)C)cc1
-17%	CCCS(=O)(=O)N1CCCC(C(=O)NC2CCCCC2)C1 (stereo unspecified)
-4%	COc1ccccc1C(=O)NN=C1CCN(Cc2ccccc2)CC1
-15%	CCOC(=O)c1[nH]c2ccccc2c1NC(=O)CN(C)C
-22%	CNC(=O)c1[nH]cnc1C(=O)Nc1ccccc1C
-16%	Cc1ccc(CN(C(=O)Cn2nnc3ccccc32)C(C(=O)NCc2ccco2)c2ccc(C)o2)cc1 (stereo unspecified)
-8%	C/C(=N\O)C(=O)NCC1CCNCC1
-28%	CC(=O)Nc1ccc(OCC(O)Cn2nc(C)c(C(C)=O)c2C)cc1 (stereo unspecified)
-8%	Cc1ccc(/C=C/C(=O)Nc2cccc3cccnc23)o1

Look-ups from above:
Entry for Cc1ccc(CONC(=O)/N=C/N(C)C)cc1 under HPGD block: -17%
Entry for O=C(CN1C(=O)CCS(=O)(=O)c2ccccc21)NCc1ccc2c(c1)OCO2 under HPGD block: -17%

The listing continues.
HPGD block	SMILES
-10%	Cc1cc(C)n(C(=O)CCC(=O)NCc2ccccc2)n1
?	Nn1c(SCc2csc(-c3ccccc3)n2)nnc1-c1cccs1
-17%	O=C(O/N=C\c1ccc(N2CCCCC2)c([N+](=O)[O-])c1)c1cccc(Cl)c1
?	C=CCNc1oc(-c2cccc3ccccc23)nc1C#N
-7%	Cc1oc(CC(C)C)c(CN2CCCC2)c1C(=O)O
-13%	Cc1cccc(Oc2ncc(-c3ccc(Cl)cc3)cn2)c1
-7%	Cc1ccc(/C=C/S(=O)(=O)N2CCC(C(=O)O)CC2)cc1
-19%	CCCCn1c(-c2nonc2N)nc2ccccc21
2%	Cc1ccc(C(=O)N(c2c(C)n(C)n(-c3ccccc3)c2=O)C(C)C)cc1
-4%	O=C(c1noc2c1CCCC2)N1CCN(Cc2ccccc2)CC1
-2%	O=C(c1ccc(S(=O)(=O)N2CCCCC2)cc1)N1CCCc2ccccc21
-7%	CCN(CC)S(=O)(=O)c1cc(C(=O)N(C)CC(=O)Nc2ccc(Cl)cc2)ccc1Cl
13µM*	O=C(Oc1ccccc1)c1ccc(NC(=O)c2ccco2)cc1
-16%	O=C(CSc1nnnn1C1CCCCC1)N1c2ccccc2Sc2ccccc21
-7%	Cc1ccc(NCCc2ccc(C)nc2)cc1
-16%	CCn1c2ccccc2c2nnc(NN)nc21
-10%	Nc1nnc(SCC(=O)N2CCc3ccccc32)n1-c1ccccc1
-8%	O=C(COC(=O)Cc1c(Cl)cccc1Cl)Nc1ccc(OC(F)(F)F)cc1
-1%	COc1ccc(NC(=O)N2CC[C@@]3(CCCN(C(=O)c4csnn4)C3)C2)cc1
4%	CC(=O)Nc1ccccc1NC(=O)c1cccc2ccccc12
?	O=C(NCCCN1CCOCC1)c1cc2c(=O)[nH]c3ccccc3c2s1
16µM*	COc1ccc(OC)c(N(CC(=O)Nc2cccnc2)S(=O)(=O)c2ccc(OC)c(OC)c2)c1
?	Cc1ccc(C2CC(=O)c3cnc(N4CCN(c5ccccc5)CC4)nc3C2)cc1 (stereo unspecified)
-17%	O=C(Cc1ccccc1)N/N=C\c1ccc(Br)o1
-4%	COc1ccc(CN(Cc2cc3cccc(C)c3[nH]c2=O)C(=O)N(C)C)cc1
-21%	CCOC(=O)c1cc(C(=O)OCC)cc(-n2c(C)cc(C(=O)CN3CCOCC3)c2C)c1
-24%	COc1ccc(S(=O)(=O)Nc2cc(C(=O)NC(C)C)ccc2N2CCOCC2)cc1
?	O=C(N/N=C\C=C\c1ccc2c(c1)OCO2)C1COc2cc3ccccc3cc2O1 (stereo unspecified)
?	Cc1ccc(-c2noc(-c3cc4ccccc4oc3=O)n2)cc1
-2%	CCOC(=O)N1CCN(c2c(NCC3CCCO3)c(=O)c2=O)CC1 (stereo unspecified)
?	COc1ccc(-c2nnc(N(C)C(=O)c3ccno3)s2)cc1
-2%	C=CCOC(=O)c1[nH]c2c(c1C)C(=O)CC(c1cc(OC)c(OC)c(OC)c1)C2 (stereo unspecified)
-7%	COc1ccc(C(=O)N/N=C(\C)Cn2nc([N+](=O)[O-])cc2C)cc1

Of the compounds above, 2 contain a tert-butyl group.
HPGD block	SMILES
-7%	CC(C)(C)C(=O)NC(=S)Nc1cc(C(F)(F)F)ccc1N1CCOCC1
-19%	CC(C)(C)c1ccc(/C=N/OCC(=O)NCc2ccccc2)cc1

Compound activity as filed in PubChem.
